High-throughput results: PubChem BioAssay, several laboratories
RecA intein inh = blocks M. tuberculosis RecA intein splicing; hit rate 0.75% among 290,000; inhibition, %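 (about 9 µM by stock and volumes)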; AID 2221; cell-free RecA intein splicing, fluorescence; in the data active = inhibition above about 30%; inconclusive = no clear call, values can overlap the other calls;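 also: 0% = vehicle wells and 100% = reference inhibitor control wells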
Target sequence (P9WHJ3 whole entry, looked up): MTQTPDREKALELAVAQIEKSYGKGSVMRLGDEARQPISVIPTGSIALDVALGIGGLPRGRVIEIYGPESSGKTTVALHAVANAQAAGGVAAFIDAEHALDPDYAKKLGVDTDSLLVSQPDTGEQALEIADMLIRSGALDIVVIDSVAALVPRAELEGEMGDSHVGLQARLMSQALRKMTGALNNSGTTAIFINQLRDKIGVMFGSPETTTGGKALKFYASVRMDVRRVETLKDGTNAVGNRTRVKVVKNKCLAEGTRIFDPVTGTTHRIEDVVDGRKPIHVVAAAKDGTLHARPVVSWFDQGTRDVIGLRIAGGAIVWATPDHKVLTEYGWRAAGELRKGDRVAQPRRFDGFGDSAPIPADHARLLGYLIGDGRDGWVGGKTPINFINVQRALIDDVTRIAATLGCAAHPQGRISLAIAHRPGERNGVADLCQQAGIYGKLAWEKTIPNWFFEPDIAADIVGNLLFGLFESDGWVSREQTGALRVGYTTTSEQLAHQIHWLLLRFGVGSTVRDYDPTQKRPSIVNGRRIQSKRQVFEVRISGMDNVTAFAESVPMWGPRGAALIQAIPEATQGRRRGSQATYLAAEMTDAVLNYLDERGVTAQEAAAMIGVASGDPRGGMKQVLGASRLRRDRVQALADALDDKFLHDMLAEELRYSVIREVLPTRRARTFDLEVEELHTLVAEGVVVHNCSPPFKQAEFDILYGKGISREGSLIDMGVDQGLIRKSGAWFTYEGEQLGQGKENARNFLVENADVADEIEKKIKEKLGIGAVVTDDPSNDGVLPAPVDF
Mtb betalactam = beta-lactam sensitization of Mtb H37Rv. inhibition, % at 25 µM. AID 434955. M. tuberculosis H37Rv growth with meropenem, percent inhibition; hits of this screen are not shown here. hit rate 0.27% among 330,000;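 active = about 74% or more and at least 40 points above the plate without the antibiotic, then above 30% in a dose series; inconclusive = first-round hits that could not be retested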;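 also: growth measured after seven days incubation then overnight dye step; 0% = bacteria only wells and 100% = bacteria with antibiotic; twin plates without the antibiotic show which effects depend on it; some results filed as inactive read as strong as hits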
Mtb H37Rv = M. tuberculosis H37Rv growth inhibitors, H37Rv strain (AID 1626); M. tuberculosis H37Rv growth inhibition; higher % means a stronger effect; inhibition, % at 10 µM, or IC50 in µM where a hit was titrated; hit rate 0.95% among 220,000;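 active = confirmed in a dose series; inconclusive = inhibition above 80% but not taken into the dose series; inactive = below 80% or under 30% at every dose of the series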;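 also: bacteria incubated seven days before Alamar blue readout; 0% = bacteria only wells and 100% = bacteria with antibiotic wells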
YopH inh = YopH (Yersinia) phosphatase inhibition. fluorescence Ex485/Em525. inhibition, %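 (about 10 µM by stock and volumes)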. hit rate 0.16% among 140,000. AID 898;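 active = inhibition of 50% or more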;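 also: controls were vehicle for no effect and minimum signal wells for full effect; inactives centre near -20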
Arbovirus inh = blocks arbovirus infection; arbovirus infection cell-based antiviral screen; inhibition, % at 10 µM; hit rate 0.37% among 200,000;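 active = inhibition from about 30%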;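 also: bluetongue infection of BSR cells; cell survival read as ATP light after 72 h; 0% = infected wells without compound and 100% = uninfected wells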
Arbovirus inh repeat = further read-out of Arbovirus inh, marked with its call; inhibition, %; measured here: 10K subset replicate screen; many hits read low in the repeat;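 first of two repeat runs on a subset; 0% = infected and 100% = uninfected wells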
Starred values were filed as active, the others as inactive; ? = inconclusive; . = no result given. A portion of the library. The share of hits here may be higher or lower than overall.

SMILES	RecA intein inh	Mtb betalactam	Mtb H37Rv	YopH inh	Arbovirus inh	others
O=C(CCN1C(=O)c2ccccc2C1=O)Nc1ccccn1	3.1	-8	-8%	-37	4
CCc1ccc(-c2cc(C)no2)cc1S(=O)(=O)NCCc1ccc(OC)c(OC)c1	-1.2	-2	.	.	.
COc1ccc(N2CCN(C(=O)c3ccncc3)CC2)cc1	-3.0	0	-3%	-20	8
O=C(CCNC(=O)c1ccc(Br)cc1)NNC(=O)C1COc2ccccc2O1 (stereo unspecified)	-1.3	-5	.	.	.
N#Cc1ccc(C(=O)Nc2ccc(N3CCN(C(=O)c4ccco4)CC3)cc2)c(F)c1	1.5	-1	5%	-3	1
Nc1cc(Cl)ccc1C(=O)OCC(=O)NC1CCCCC1	-2.3	0	-13%	.	0
O=C(COC(=O)Cc1ccccc1[N+](=O)[O-])NCC1CCCCC1	-3.4	-2	-4%	.	0
CN1CCN(c2nc3ccccn3c(=O)c2C=C2C(=O)N(C)C(=O)N(C)C2=O)CC1	-19	1	-1%	-38	-2
OCC[C@H]1C[C@H](O)[C@@H](O)[C@@]2(CCCO2)O1	-2.1	-11	-3%	.	.
Cc1occc1C(=O)N(C)Cc1nc(-c2ccc(Cl)cc2)no1	2.9	-1	.	.	.
O=C(COC(=O)c1ccc(Br)o1)NCCc1ccccc1	0.7	9	7%	.	9
C=CCn1c(SCC(=O)Nc2ccccc2OC)nc2c([nH]c3ccccc32)c1=O	-0.4	-14	.	.	.

Sorted by formula weight (largest number first): part of the list above.
SMILES	RecA intein inh	Mtb betalactam	Mtb H37Rv	YopH inh	Arbovirus inh	others
CCc1ccc(-c2cc(C)no2)cc1S(=O)(=O)NCCc1ccc(OC)c(OC)c1	-1.2	-2	.	.	.
CN1CCN(c2nc3ccccn3c(=O)c2C=C2C(=O)N(C)C(=O)N(C)C2=O)CC1	-19	1	-1%	-38	-2
O=C(COC(=O)Cc1ccccc1[N+](=O)[O-])NCC1CCCCC1	-3.4	-2	-4%	.	0

The results go on.
SMILES	RecA intein inh	Mtb betalactam	Mtb H37Rv	YopH inh	Arbovirus inh	others
CCN1CCN(c2nc3c(C)cccn3c(=O)c2C=C(C#N)C#N)CC1	-28	-2	.	.	.
COc1ccc(CN2C(=NC(=O)CCC3CCCC3)SC3CS(=O)(=O)CC32)cc1 (stereo unspecified)	1.4	-1	.	.	.
CCCNC(=O)c1cccc(COc2ccccc2OC)c1	1.4	-5	-5%	.	-8
S=C(NC1CCCC1)NC1CC1	-1.3	-5	-2%	-19	5
COc1ccc(-c2nc(CSCC(=O)NC3CC3)c(C)o2)cc1OC	1.0	3	.	.	.
COC(=O)c1ccccc1NC(=O)CSc1nnc(-c2cccnc2)n1N	9.5	-4	7%	.	-6
Cc1cnc(C(=O)OCC(=O)c2csc(N3CCCCC3)n2)cn1	6.8	0	-2%	-31	-8
CCn1c(Cc2ccccc2)nnc1SCC(=O)Nc1ccc2c(c1)OCO2	0.2	-18	0%	-33	-40
CCc1ccc(NC(=O)c2c(C(=O)Nc3ccccc3)sc3nc(C)cc(=O)n23)cc1	-0.6	-1	5%	.	0
O=C(NCc1n[nH]c(=S)n1-c1ccc(Cl)c(Cl)c1)c1ccco1	1.1	-12	.	.	.
Cc1cc(C)c(S(=O)(=O)N2CCCOC2CNC(=O)C(=O)NCc2ccccn2)c(C)c1 (stereo unspecified)	.	-5	7%	.	2
Cc1ccc2c(Cl)cc(Cl)c(OCC(=O)Nc3cc(C)on3)c2n1	.	.	-6%	-37	-1
O=C1NC(=O)N(CCC2=CCCCC2)C(=O)/C1=C\c1cccs1	1.8	-8	-9%	-20	6
COc1ccc(-n2cccc2C=O)cc1	-0.2	3	0%	-27	-6
CCn1c(=S)sc2c(=O)[nH]c(C)nc21	0.0	15	-2%	-25	3
Fc1cccc(Cl)c1CSc1nnnn1-c1ccc2c(c1)OCO2	3.4	6	7%	-38	-9	Arbovirus inh repeat=-13
O=C(COC(=O)[C@@H]1CCCN1C(=O)c1cccs1)Nc1ccc(F)cc1[N+](=O)[O-]	-1.9	-3	3%	.	11
O=C(NCc1ccccn1)C1CC(=O)N(C2CCCC2)C1 (stereo unspecified)	-5.1	-3	1%	-9	6	Arbovirus inh repeat=1
O=C(Nc1ccc(S(=O)(=O)Nc2nccs2)cc1)C1CCCCC1	-1.4	46	-4%	-34	13
CNc1nc(N2CCc3ccccc32)ncc1F	2.8	10	?	31	5
Cc1ccc(C(=O)N/C(=C/c2ccc(-c3ccc([N+](=O)[O-])cc3)o2)C(=O)NCCCN(C)C)cc1	-7.5	-6	.	.	.
CCC1(C)CC2(CCCN(CCC(O)(c3ccccc3)c3ccccc3)C2)CCO1 (stereo unspecified)	0.6	0	-4%	.	.
CCOC(=O)Nc1nc(C)c(C(=O)c2ccc(Cl)cc2)s1	-2.4	-5	3%	-12	-12
O=C1CCc2ccc(NS(=O)(=O)c3ccc(F)cc3)cc2N1	-1.0	5	-1%	.	-2
Cc1ccc(-c2noc(CCC(=O)Nc3cc(C)ccn3)n2)cc1	-1.6	40	4%	31	0
CCCN(C(=O)Cn1ncc2c(=O)oc3ccccc3c21)c1cccc(C)c1	0.9	4	0%	-15	-5
CC12CN3CC(C)(CN(C1)C31CCSCC1)C2=O	1.1	-11	-8%	-2	13
COc1ccccc1N1CCN(C(=O)CN(C)S(=O)(=O)c2cc(C)ccc2OC)CC1	0.9	3	-1%	.	-1
CC(NC(=O)Cn1nc(-c2ccccc2)ccc1=O)c1ccccc1 (stereo unspecified)	0.2	-8	3%	.	.
COc1ccc(OCc2nc(C#N)c(NCCCn3ccnc3)o2)cc1	-0.8	-16	-2%	.	8
Cc1ccc(CN2CCSc3sccc3C2=O)cc1	3.1	3	12%	.	-2
CCCCn1c(O)c(/C=N/NC(=O)c2ccncc2)c(=O)[nH]c1=S	-0.7	99	?	.	.
O=C(c1cc(-c2ccccc2)nc2ccccc12)N1N=C(C(F)F)CC1(O)C(F)F (stereo unspecified)	4.8	8	3%	-18	13
CCN(c1ccccc1)S(=O)(=O)c1cc(NC(=O)CSc2n[nH]c(=O)[nH]c2=O)ccc1Cl	2.2	-6	1%	.	.
COc1ccccc1CNC(=O)C(NS(=O)(=O)c1cccc2nsnc12)C(C)C (stereo unspecified)	-14	-7	-3%	.	.
CN(C)/C=C1\Oc2ccc3ccccc3c2C1=O	-68	5	-2%	.	22
CS(=O)(=O)N1CCN(c2ccccc2NC(=O)Nc2cccc(Cl)c2)CC1	4.5	94	.	.	.
Cc1ccc(NC(=O)c2cc(N3C(=O)C=CC3=O)ccc2Cl)cc1C	6.1	2	7%	-18	6
COc1ccc(S(=O)(=O)Nc2cccc(NC(C)=O)c2)cc1	0.5	-9	-9%	-28	-3
O=C(NC(Cc1ccccc1)C(=O)O)/C(=C/c1ccc(F)cc1)NC(=O)c1ccccc1 (stereo unspecified)	-0.1	-6	-7%	-17	-4
Clc1ccc2nc(CSc3ncn[nH]3)cn2c1	-1.1	1	11%	.	-2
CCC12CC3CC(C1)CC(C(=O)Nc1nn[nH]n1)(C3)C2	1.3	-1	-4%	-14	0
CC(C)C(OC(=O)c1cccs1)C(=O)NC1CCCCC1 (stereo unspecified)	0.1	-3	-7%	1	-3
Cc1cc(NC(=O)c2ccc(NC(=O)C3CCCO3)cc2)ccc1Br (stereo unspecified)	-0.5	67	.	.	.
CCOC(=O)CN1C(=O)N[C@@H](CCc2ccccc2)C(C(C)=O)=C1C	1.6	-7	-8%	.	.
CC1=NN(C(N)=S)C(=O)C1N=Nc1cccc(Cl)c1C (stereo unspecified)	27	75	.	.	.
CC(Cc1ccccc1)N1C(=O)c2ccccc2C1=O (stereo unspecified)	0.9	-4	.	.	.
Cc1c(NS(=O)(=O)c2cc(C(=O)NCCN(C)C)ccc2Cl)c(=O)n(-c2ccccc2)n1C	-0.1	1	.	.	.

As a working copy, some entries already given:
SMILES	RecA intein inh	Mtb betalactam	Mtb H37Rv	YopH inh	Arbovirus inh	others
CS(=O)(=O)N1CCN(c2ccccc2NC(=O)Nc2cccc(Cl)c2)CC1	4.5	94	.	.	.
Cc1ccc(NC(=O)c2cc(N3C(=O)C=CC3=O)ccc2Cl)cc1C	6.1	2	7%	-18	6
COc1ccc(S(=O)(=O)Nc2cccc(NC(C)=O)c2)cc1	0.5	-9	-9%	-28	-3
O=C(NC(Cc1ccccc1)C(=O)O)/C(=C/c1ccc(F)cc1)NC(=O)c1ccccc1 (stereo unspecified)	-0.1	-6	-7%	-17	-4
Clc1ccc2nc(CSc3ncn[nH]3)cn2c1	-1.1	1	11%	.	-2

More results:
SMILES	RecA intein inh	Mtb betalactam	Mtb H37Rv	YopH inh	Arbovirus inh	others
COCCNC(=O)C1CC(=O)N(c2ccc(F)c(Cl)c2)C1 (stereo unspecified)	0.3	-7	-6%	-28	3	Arbovirus inh repeat=-2
CCCCCCc1cc2cc(C(=O)Nc3ccccc3OC)c(=O)oc2cc1O	-10	-1	4%	-24	80*
C/C(=N/NC(=O)c1ccco1)c1ccc(NC(=O)c2ccc(F)cc2)cc1	-2.2	3	0%	-29	3
CN(C)Cc1c(C(=O)N/N=C/c2cccc3ccccc23)nnn1-c1nonc1N	-1.7	7	.	.	.
CCOC(=O)C1CCN(S(=O)(=O)c2ccc(OCC)cc2)CC1	-2.0	-7	-5%	-4	5	Arbovirus inh repeat=4
CC1=CC(C)(C)n2c(O)c(N=NC(N)=S)c3cccc1c32	-0.5	-5	24%	-16	-5
COCCNc1oc(Cc2cccc3ccccc23)nc1C#N	1.2	0	.	.	.
Cc1ccc(Cl)cc1NC(=O)COC(=O)C1CC1	-3.9	58	15%	.	23
COc1ccc(C(=O)Nc2ccccc2C(=O)N2CCN(c3ccccc3)CC2)cc1	2.6	3	.	.	.
Cc1ccc(NC(=O)c2sc(N)nc2-c2ccccc2)cc1C	-2.8	1	11%	.	-13
Cn1c(=O)[nH]c(NCCc2ccc(O)cc2)c([N+](=O)[O-])c1=O	-1.0	-9	.	.	.
CCSc1nc2c(c(=O)[nH]1)C(c1cccnc1)C(C(=O)OC)=C(C)N2 (stereo unspecified)	-5.5	-2	2%	-27	-6
CCOC(=O)c1c(-c2ccccc2)csc1NC(=O)CSc1nncs1	-2.3	5	5%	-13	-2
CS(=O)(=O)N1CCc2cc(C(=O)Nc3ccc(O)cc3)ccc21	-0.4	-2	.	.	.
CC(C)CCN1C(=O)c2ccc(C(=O)Nc3cc(C(=O)O)cc(C(=O)O)c3)cc2C1=O	0.5	-4	.	.	.
CCCNC(=O)CS(=O)Cc1nc(-c2ccccc2C)oc1C (stereo unspecified)	1.0	4	-3%	-32	1	Arbovirus inh repeat=2
O=C(Cn1nnc(-c2ccc(F)cc2)n1)OCC(=O)c1ccccc1	-0.3	6	6%	.	2
CCCC(=O)Nc1cccc(NC(=O)c2ccc3c(c2)OCO3)c1	3.2	3	-5%	-14	-11
CCOCCCNc1nc2c([nH]1)c(=O)n(C)c(=O)n2C	2.4	6	-20%	-93	14
O=C(Cn1cc(/C=N/O)c2ccccc21)N1CCOCC1	0.9	-7	-1%	-36	1
COc1cccc(NC(=O)COc2coc(CN3CCN(c4ccccc4)CC3)cc2=O)c1	1.7	1	.	.	.
O=C(NN=C1CCCCCC1)c1ccncc1	-2.1	99	.	.	.
CCCN1CCN(C(=O)C2CCCN(c3ncnc4c3nc3n4CCCCC3)C2)CC1 (stereo unspecified)	1.5	-12	.	.	.
O=C(Cn1cc2c(n1)CCCC2)NCc1ccccn1	-0.2	-4	-1%	-16	-1	Arbovirus inh repeat=8
Cc1ccc(NC(=O)CSc2nnc(C3CC3)n2CC2CCCO2)c(C)c1 (stereo unspecified)	0.2	-7	.	.	.
CC1CCCN(CCCOc2ccc(Br)cc2Cl)C1 (stereo unspecified)	2.0	-14	-2%	.	3
Cc1nnc(C)n1N	0.7	-5	0%	.	8
Cn1cnnc1SC1c2cccc3cccc(c23)C1NS(=O)(=O)c1ccc(Cl)cc1 (stereo unspecified)	0.6	-9	5%	-20	-1
O=C(N1CCCCCC1)n1c(Cc2ccccc2)nc2ccccc21	4.8	-10	-1%	-26	-10
CCN(c1cccc(C)c1)S(=O)(=O)c1ccc2c(c1)NC(=O)CCS2	-2.2	-3	.	.	.
CC(C)CCNC(=O)CCCOc1cc(=O)n(C)c2ccccc12	-3.6	-9	.	-40	-8
CCOc1ccccc1NS(=O)(=O)c1ccc2[nH]c(=O)ccc2c1	0.6	0	.	.	.
COc1cc2nc(N3CCN(c4cc(C)ccc4C)CC3)nc(N)c2cc1OC	10	100	.	.	.
CCCNC(=O)/C(=C/c1cn(S(=O)(=O)N(C)C)c2ccccc12)NC(=O)c1ccc(OC)cc1	1.9	-1	2%	.	1
CCCC(=O)OC/C(O)=C(\C#N)c1nc2ccccc2[nH]1	2.0	74	?	.	-21
Cn1cc(C(=O)N/N=C/c2ccc([N+](=O)[O-])cc2)c2ccccc21	1.8	78	-2%	.	.
NNC(=O)c1nc[nH]c1C(=O)Nc1ccc(Cl)cc1C(=O)c1ccccc1	3.2	2	.	.	.
